HCMV UL50-53 inh: inhibitors of HCMV UL50-UL53 interaction, biochemical, HTRF; 190,000 tested, 0.15% active; HCMV UL50-UL53 nuclear egress complex (human cytomegalovirus); normalized percent inhibition; inhibition, % (test concentration not listed);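 active = both replicates at 50% or more, plus weaker picks with an unusually low signal ratio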;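 note: stock transfer was 100 nL into about 20 µL; 0% = negative control wells and 100% = wells with untagged competitor protein; inactives centre near -12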
GIV-Gai inh: inhibitors of GIV peptide binding to Galpha-i3, primary screen, biochemical, fluorescence polarization, FITC-GIV GBA peptide, rat Galphai3; Guanine nucleotide-binding protein G(i) subunit alpha-3 (Rattus norvegicus), P08753; 90 min; stronger effect = lower value; scaled: aluminum fluoride 0%, vehicle 100%; percent of control (FP), % (no concentration beside the values); 210,000 tested, 0.42% active;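 active = replicate mean at 85% of control or lower, very high polarization wells dropped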;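 note: wells of about 15 µL received 100 nL stock; the first replicate is given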
Target sequence (P08753 whole entry, looked up): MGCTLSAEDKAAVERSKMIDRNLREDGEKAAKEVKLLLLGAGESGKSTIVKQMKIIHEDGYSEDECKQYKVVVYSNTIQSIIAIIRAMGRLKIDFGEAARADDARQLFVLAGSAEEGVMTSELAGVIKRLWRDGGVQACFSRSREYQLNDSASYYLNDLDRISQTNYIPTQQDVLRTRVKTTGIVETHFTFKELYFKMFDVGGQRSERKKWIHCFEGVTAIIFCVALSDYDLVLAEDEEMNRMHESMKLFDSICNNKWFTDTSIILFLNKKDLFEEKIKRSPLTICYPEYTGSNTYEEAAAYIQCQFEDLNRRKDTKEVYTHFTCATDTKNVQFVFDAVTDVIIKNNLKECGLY
Sa growth inh: S. aureus growth inhibition at 42 and 30 °C, primary screen, LtaS inhibitor project, RN4220, two temperatures; OD600, 20 h, 42 °C; stronger effect = lower value; relative growth, % (no concentration beside the values); 170,000 tested, 0.53% active; AID 720641, 2013;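 active = growth at 42 °C up to 50% and 20 or more points under that at 30 °C, or under 10% at both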;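 note: 300 nL library stock went into each well; scaled to the means of positive and negative controls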
Sa growth inh second temp: recorded beside Sa growth inh, whose call it bears; relative growth, %; measured here: growth at 30 °C;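 optical density after 20 h as mean of two plates; 100% = untreated growth and lower means inhibition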
Numbers without * were called inactive; . = not tested or not shown; & = joins results of further samples.

SMILES	HCMV UL50-53 inh	GIV-Gai inh	Sa growth inh	Sa growth inh second temp
Cc1cc(C)c(NC(=O)CN(c2ccccc2)S(=O)(=O)N(C)C)c(C)c1	-20	105	96	91
Cc1ccc(Nc2nnc(C(C)(C)C)c(=O)[nH]2)cc1	3	104	.	.
Cc1ccc(CSc2nc(C)c(Oc3cccc(C(F)(F)F)c3)c(=O)n2C)cc1	.	99	120	92
O=C(O)COc1ccccc1C=C1C(=O)c2ccccc2C1=O	.	93	108	85
c1ccc(NCc2ccncc2)cc1	-19	104	77	87
O=c1cc(CN2CCc3ccccc3C2)nc2nc(NCc3ccccc3Cl)[nH]n12	-25	98	.	.
CCN(CC(=O)Nc1ccc(OC)cc1)Cc1nc2sc(C(=O)OC)c(C)c2c(=O)[nH]1	-25	.	99	88
O=C1OCCN/C1=C/C(=O)c1ccc(Cl)cc1	-10	104	105	101
CCC(C(=O)NC1CCCCC1)N1CCN(Cc2ccc(F)cc2)C(=O)C1=O (stereo unspecified)	-34	108	.	.
Cn1c(=O)c2ccc(C(=O)NC3CCCCC3)cc2n2c(SCC(=O)NC3CCCC3)nnc12	-2	102	.	.
COc1ccc(SCCc2ccncc2)cc1	-19	101	95	81
CC(C)(C)OC(=O)N1CCN(Cc2ccccc2)CC1	12	104	123	96
O=C(c1ccco1)n1nc(-c2ccccc2)nc1NCc1ccc(Cl)cc1	0	104	84	91
CCOc1cc(C2C(C(=O)OC(C)C)=C(C)NC3=C2C(=O)CC(c2ccccc2)C3)ccc1OC(C)=O (stereo unspecified)	-17	98	.	.
CC1=C(C(=O)Nc2cccnc2)C(c2ccc(F)cc2)n2nc(SCc3ccccc3)nc2N1 (stereo unspecified)	-37	104	132	88
CC1CCCN(c2nc3c(S(=O)(=O)c4ccc(C(C)C)cc4)nnn3c3ccsc23)C1 (stereo unspecified)	.	99	110	86
Cc1c(Cl)cccc1-c1ccc(/C=C(\C#N)c2nc3ccccc3[nH]2)o1	5	226	71	77
O=C(NCN1CCOCC1)c1cccnc1	9	102	95	87
CCOC(=O)c1c(C)n(-c2ccccc2)c2c1cc(OC(=O)c1ccc(OC)cc1)c1ccccc12	-2	107	.	.
CCCCn1c(=O)n(CC(=O)c2[nH]c(C)c(C(=O)OCC)c2C)c(=O)c2c1ncn2Cc1ccco1	-13	.	77	82
CC(=O)Nc1ccc(Br)c(OC(F)F)c1	1	.	98	96
NC(=O)C1CCN(C(=O)C2CCN(S(=O)(=O)Cc3ccc(F)cc3)CC2)CC1	-12	106	.	.
COc1cccc(NC(=O)C2COc3ccccc3O2)c1 (stereo unspecified)	-16	105	.	.
FC(F)(F)c1cccc(-c2csc(-c3ccc(-n4cncn4)nc3)n2)c1	-4	99	99	101

Single records, from the list above:
Shown for CC1=C(C(=O)Nc2cccnc2)C(c2ccc(F)cc2)n2nc(SCc3ccccc3)nc2N1 (stereo unspecified) : HCMV UL50-53 inh = -37; GIV-Gai inh = 104; Sa growth inh = 132; Sa growth inh second temp = 88
Shown for CCOc1cc(C2C(C(=O)OC(C)C)=C(C)NC3=C2C(=O)CC(c2ccccc2)C3)ccc1OC(C)=O (stereo unspecified) : HCMV UL50-53 inh = -17; GIV-Gai inh = 98; Sa growth inh = .; Sa growth inh second temp = .

Other structures.
SMILES	HCMV UL50-53 inh	GIV-Gai inh	Sa growth inh	Sa growth inh second temp
Cc1ccc(C2=NN(C(=O)CCC(=O)O)C(c3cn(-c4ccccc4)nc3-c3ccccc3)C2)cc1 (stereo unspecified)	-8	109	.	.
CCOC(=O)C1(C(=O)OCC)Oc2c(OC)cccc2C1O (stereo unspecified)	1	94	102	92
CC(=O)N(c1ccccc1)c1nc(CSc2nnc(-c3ccc(C)cc3)o2)cs1	-7	.	98	93
Cc1ccc(Nc2nc(N)nc(CSc3ncccn3)n2)cc1	.	103	99	68
COc1ccc(OC)c(NC(=O)c2cnc(Nc3ccc(C)c(Cl)c3)c3ccccc23)c1	-14	108	87	76
COc1ccc(-c2cc(C(=O)Oc3ccc(C#N)cc3)no2)cc1	2	110	86	91
CN(C(=O)c1nn(C)c2c1CSc1ccccc1-2)c1ccccc1	-16	97	95	79
Cn1c(C(=O)Nc2ccc(C(=O)N3CCCC3)cc2)cc(=O)n(C)c1=O	-32	104	104	80
COCCn1c(C)cc(/C=N/n2c(-c3ccccc3C)n[nH]c2=S)c1C	-12	.	104	92
Cc1ccc(NC(=O)CC2NCCN(Cc3ccccc3)C2=O)cc1 (stereo unspecified)	-19	109	101	95
CCN(CC)S(=O)(=O)c1ccc(-c2csc(C)n2)s1	.	102	96	89
CCCc1c(NC(=O)Nc2ccc(F)cc2)cnn1-c1ccccc1	-30	104	94	73

A run of entries from the list above, as a working copy:
SMILES	HCMV UL50-53 inh	GIV-Gai inh	Sa growth inh	Sa growth inh second temp
CC(=O)N(c1ccccc1)c1nc(CSc2nnc(-c3ccc(C)cc3)o2)cs1	-7	.	98	93
Cc1ccc(Nc2nc(N)nc(CSc3ncccn3)n2)cc1	.	103	99	68
COc1ccc(OC)c(NC(=O)c2cnc(Nc3ccc(C)c(Cl)c3)c3ccccc23)c1	-14	108	87	76
COc1ccc(-c2cc(C(=O)Oc3ccc(C#N)cc3)no2)cc1	2	110	86	91
CN(C(=O)c1nn(C)c2c1CSc1ccccc1-2)c1ccccc1	-16	97	95	79

Carrying on.
SMILES	HCMV UL50-53 inh	GIV-Gai inh	Sa growth inh	Sa growth inh second temp
COc1ccc(C(C)=CC(=O)C(C)(C)C)cc1	-15	102	133	106
CC(=O)N=C(N=Nc1c(O)[nH]c2ccccc12)NC(C)=O	-100	105	94	88
Clc1cc(N2CCOCC2)nc(-c2ccccc2)n1	-12	103	.	.
CCOC(=O)c1c(C)n(C)c2c1cc(OC(=O)c1ccc(C)cc1)c1ccccc12	-5	95	.	.
Cc1ccc2sc(C(=O)O)cc2c1	25	98	114	105
O=C(Cc1ccc(F)cc1)N1CCC(c2nc3c(nnn3Cc3ccc(F)cc3)c(=O)[nH]2)CC1	-3	104	57	39
COc1ccc(CNc2nc3c(-c4ccccc4)nnn3c3ccccc23)cc1	-12	110	103	90
O=C(NC1C2CC3CC(C2)CC1C3)c1cc2ccccc2o1 (stereo unspecified)	-11	95	87	87
COc1ccc(N2CCN(C(=O)c3ccc(CS(=O)c4cccc(C)c4)o3)CC2)cc1 (stereo unspecified)	.	103	107	89
CCOc1cc(-c2nn3c(C(C)(C)C)nnc3s2)cc(OCC)c1OCC	-20	104	73	63
Cn1nc(-c2ccc(C(=O)N3CCN(CCO)CC3)cc2)c2ccccc2c1=O	-9	96	108	102
CC(C)NC(=O)/C=C/c1ccco1	-44	98	89	82

Among those listed so far, six have a Cl atom:
SMILES	HCMV UL50-53 inh	GIV-Gai inh	Sa growth inh	Sa growth inh second temp
O=c1cc(CN2CCc3ccccc3C2)nc2nc(NCc3ccccc3Cl)[nH]n12	-25	98	.	.
O=C1OCCN/C1=C/C(=O)c1ccc(Cl)cc1	-10	104	105	101
O=C(c1ccco1)n1nc(-c2ccccc2)nc1NCc1ccc(Cl)cc1	0	104	84	91
Cc1c(Cl)cccc1-c1ccc(/C=C(\C#N)c2nc3ccccc3[nH]2)o1	5	226	71	77
COc1ccc(OC)c(NC(=O)c2cnc(Nc3ccc(C)c(Cl)c3)c3ccccc23)c1	-14	108	87	76
Clc1cc(N2CCOCC2)nc(-c2ccccc2)n1	-12	103	.	.

Further records:
SMILES	HCMV UL50-53 inh	GIV-Gai inh	Sa growth inh	Sa growth inh second temp
CCN(CC)CCn1c(NCc2ccc(N(CC)CC)cc2)nc2ccccc21	-4	101	.	.
Cc1ccc(C(=O)N/N=c2\oc3ccccc3cc2C(N)=O)cc1	-52	109	101	88
COc1ccc(C)cc1NC(c1nnc(-c2ccccc2)o1)c1ccc(F)cc1Cl (stereo unspecified)	-4	107	89	95
N#CC(c1ccccc1)c1cn2cc(Br)ccc2n1 (stereo unspecified)	-17	.	89	67
O=C(CN1C(=O)CCC1=O)NCc1ccc2c(c1)OCO2	-16	.	83	94
COc1ccc(-c2cc(C(F)(F)F)n3nc(C(=O)Nc4sc5c(c4C#N)CCC(C)C5)cc3n2)cc1OC (stereo unspecified)	2	101	75	87
Cn1c(=O)n(-c2ccc(F)cc2)c2nc(-c3ccccc3)nc(C(N)=O)c21	-11	103	.	.
Cc1nn(C(=O)C2CC2)c(C)c1S(=O)(=O)N1CCOCC1	-31	100	.	.
COc1ccc(-c2csc3nc[nH]c(=O)c23)cc1OC	-7	99	101	99
NC(=O)CN(C1CCCCC1)S(=O)(=O)c1ccc(Br)cc1	-6	99	76	81
Cc1nn2c(N3CCN(C)CC3)cc(C(C)(C)C)nc2c1-c1ccc(F)cc1	-21	103	.	.
CCCc1ccc(OC(C)c2nc(-c3ccc(-n4cccc4)cc3)no2)cc1 (stereo unspecified)	-3	104	100	92
O=C(O)/C(=C\c1ccc(-c2ccc(F)cc2)o1)c1ccccc1	-36	.	51	29
COC(=O)c1ccc(NC(=O)CCc2c(C)nc3c(-c4ccccc4)c(C)nn3c2C)cc1	-27	101	111	98
Cc1ccc(NCc2c[nH]c3ccccc23)cc1	-3	95	87	80
c1ccc(CNCc2ccc3c(c2)OCCO3)cc1	-7	106	110	84
CCOC(=O)c1sc2ncn(/N=C/c3cccnc3)c(=O)c2c1C	-46	104	104	96
O=C(Cn1nc(C(F)(F)F)c2c1CCC2)N1CCCC1	5	.	96	94
COc1cccc(-n2ccnc(SCC(=O)Nc3ccccc3C)c2=O)c1	-32	102	.	.
CCc1ccccc1NC(=O)Cn1c(=O)n(-c2ccccc2)c(=O)c2oc3ccccc3c21	.	95	78	84
COC(=O)C1=C(C)N(c2ccc(C(C)C)cc2)C(=O)C1	-16	.	100	90
CC(/C=N/N1C(=O)c2ccccc2C1=O)c1ccccc1 (stereo unspecified)	-44	101	96	79
Cc1ccccc1NC(=O)c1ccc2c(SCC(=O)O)c3c(nc2c1)CCC3	-2	106	97	93
Cc1ccc(Cn2c(=O)c3ccccc3n3c(SCC#N)nnc23)cc1	-26	.	75	92
O=C(C1CCCN(S(=O)(=O)c2cccc3nsnc23)C1)N1CCN(c2ccccc2)CC1 (stereo unspecified)	-85	100	97	86
CCn1c2c(c3cc(Cl)ccc31)CCCC2=O	-32	98	.	.
C=CCn1c(SCC(=O)NCCCO)nc2sc3c(c2c1=O)CCC3	2	109	.	.
CCc1ccccc1NC(=O)N1CCCn2nc(C)cc21	-6&-31	108&104	102	93
CCOC(=O)c1c(CN2CCN(c3ccccc3C)CC2)oc2cc(Br)c(OC)cc12	-3	104	.	.
CC1=C(C(=O)OC(C)C)C(c2cn(-c3ccccc3)nc2-c2ccc(OC(C)C)cc2)NC(=O)N1 (stereo unspecified)	.	105	108	70
COc1ccc(C2CC(c3ccc4ccccc4c3)=NN2C)cc1 (stereo unspecified)	-24	103	106	81
CCC(C)Cn1c(CCNC(=O)c2cccc(C)c2)nc2ccccc21 (stereo unspecified)	-8	100	.	.
COC(=O)CN1C(c2ccccc2)=Nc2ccc(C)cc2C1c1ccccc1 (stereo unspecified)	.	97	81	87
CC(C(=O)Nc1ccc(F)cc1)n1nnc2ccccc2c1=O (stereo unspecified)	-26	103	91	98
N[C@H](C(=O)O)[C@H]1C[C@@H]1C(=O)O	-23	109	.	.
OC(C#CCN1CCCCC1)c1ccccc1 (stereo unspecified)	-10	102	86	87
N#CSc1ccc(N2CCCCC2)cc1	-2	99	76	43
Cc1noc(C)c1S(=O)(=O)N1c2ccccc2CC1C (stereo unspecified)	.	99	96	79
CC(=O)OCC(=O)[C@@]1(O)[C@H](OC(C)=O)CC2C3CCC4=CC(=O)C=C[C@]4(C)[C@@]3(F)[C@@H](O)C[C@@]21C (stereo partly specified)	-16	.	96	95
C=C(C)Cn1c(CCNC(=O)c2cc(OC)c(OC)c(OC)c2)nc2ccccc21	.	99	95	78
Cc1ccc(-c2noc(CCC(=O)NCCCN3CCN(c4ccc(F)cc4)CC3)n2)cc1	.	99	97	90
COc1ccccc1N/C=C(\C#N)S(=O)(=O)c1ccc(Cl)cc1	-6	104	102	81
NS(=O)(=O)c1ccc(NC(=O)CS)cc1	-8	99	111	75
O=C(CCCN1C(=O)C2C3C=CC(C3)C2C1=O)N1CCN(c2ccccc2F)CC1 (stereo unspecified)	-7	104	85	84
O=C(Cc1ccc(Cl)cc1)Nc1ccc2oc(-c3ccccc3)nc2c1	-59	108	103	87
CCNC(=O)c1cccc(N)c1	-20	.	80	87
O=C(COC(=O)Cc1c[nH]c2ccccc12)Nc1ccc(S(=O)(=O)N2CCCC2)cc1	-11	.	114	103
Cc1ccc2oc3c(c(=O)c2c1)C(c1cccc(O)c1)N(CCCN1CCOCC1)C3=O (stereo unspecified)	-59	107	105	89
Fc1ccc(CN2CCc3nc(N4CCN(c5ccccc5F)CC4)ncc3C2)c(F)c1	.	104	99	93
CCn1nc(C(C)C(=O)O)c2ccccc2c1=O (stereo unspecified)	-19	94	140	94
CC(NCc1ccccc1)c1ccco1 (stereo unspecified)	2	100	106	90
Cc1cc(=O)n2nc(C3CCCCC3)nc2n1CC(=O)Nc1ccc(Br)cc1	-30	105	.	.
O=C(COc1cc(O)c2c(=O)cc(-c3ccccc3)oc2c1)OCc1ccccc1	-13	104	.	.
CC(=O)Nc1ccc(NC(=O)C2CCN(c3c(NC(C)=O)c(C)nn3-c3ccccc3)CC2)cc1	.	105	105	91
COC(=O)c1cc(C(=O)OC)c(C(=O)OC)cc1C(=O)OC	-29	.	87	103

Assay outcomes from PubChem BioAssay.

Rows were taken by chance; overall some 0.8% were active at least once.
